High-throughput results (PubChem)
HIV Env fusion = blocks HIV Env-driven cell-cell fusion; inhibition, % at 12.3 µM; 1.1% of 360,000 active; AID 651610; HeLa-JRFL Env/CEM21 cell fusion, luciferase;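 active means mean replicate inhibition score of at least 50 and every replicate individually at or above 50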;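 further: 0% = plate neutral controls and 100% = maraviroc near 300 nM; one replicate is shown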
Yeast UUG start = alters start codon recognition fidelity in yeast; S. cerevisiae UUG-firefly luciferase reporter, luminescence/redox ratio; activity score, % at 18.7 µM; 0.13% of 350,000 active; AID 602363;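 active means replicate mean at a twofold rise or more, about +100% in these data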;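 further: firefly luciferase made from a UUG start codon reports start codon fidelity; reporter light over untreated wells divided by growth signal over untreated wells; some hits fall short of that in this replicate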
* marks the source's active call; other numbers are inactive results; [ ] = another dose, or the depositor's remark. The list is partial; the hit share may differ from the screen's.

structure	Yeast UUG start	HIV Env fusion
C[C@@H]1CN([C@@H](C)CO)S(=O)(=O)c2ccc(C#Cc3ccccc3)cc2O[C@H]1CN(C)S(=O)(=O)c1ccccc1F	-13	2[16.7 µM]
CNC(=O)C[C@@H]1CC[C@H]2[C@H](COc3ccc(NC(=O)c4cccs4)cc3C(=O)N2C)O1	5	5[16.7 µM]
C[C@@H]1CCCCO[C@@H](CN(C)Cc2ccc(Cl)c(Cl)c2)[C@@H](C)CN([C@@H](C)CO)C(=O)c2cc(NC(=O)Nc3ccc4c(c3)OCO4)ccc2O1	22	3[16.7 µM]
CC(C)NC(=O)N(C)C[C@H]1Oc2c(NC(=O)c3ccc(-c4nccs4)cc3)cccc2C(=O)N([C@H](C)CO)C[C@@H]1C	1	4[16.7 µM]
CN(C)CC(=O)N[C@H]1CC[C@H](CCNC(=O)C2CCCC2)O[C@H]1CO	-4	-6[16.7 µM]
COc1ccc(S(=O)(=O)N(C)C[C@@H]2Oc3ccc(NC(=O)Nc4ccc(C(F)(F)F)cc4)cc3CC(=O)N([C@H](C)CO)C[C@H]2C)cc1	-1	5[16.7 µM]
COc1ccc(CN(C)C[C@@H]2OCCCC[C@@H](C)Oc3ccc(NS(=O)(=O)c4ccc(C)cc4)cc3C(=O)N([C@@H](C)CO)C[C@H]2C)cc1	1	10[16.7 µM]
CCC(=O)N(C)C[C@@H]1Oc2cc(C#CC(C)(C)O)ccc2S(=O)(=O)N([C@@H](C)CO)C[C@@H]1C	-8	22[16.7 µM]
COc1ccc(NC(=O)N(C)C[C@H]2Oc3ccc(NC(=O)Nc4cccc5ccccc45)cc3CC(=O)N([C@@H](C)CO)C[C@H]2C)cc1	2	12[16.7 µM]
COc1ccc(CN(C)C[C@@H]2Oc3ccc(NC(=O)CCN4CCOCC4)cc3C(=O)N([C@@H](C)CO)C[C@@H]2C)cc1	5	6[16.7 µM]
Cc1noc(C)c1NC(=O)Nc1cccc2c1O[C@@H](CN(C)S(C)(=O)=O)[C@H](C)CN([C@@H](C)CO)C2=O	-5	0[16.7 µM]
C[C@@H]1CCCCO[C@H](CN(C)C(=O)NC2CCCCC2)[C@@H](C)CN([C@H](C)CO)C(=O)c2cc(N(C)C)ccc2O1	-14	-4[16.7 µM]
C[C@@H]1CN([C@@H](C)CO)C(=O)c2cccc(NC(=O)Nc3ccc4c(c3)OCO4)c2O[C@@H]1CN(C)S(C)(=O)=O	-1	-12[16.7 µM]
C[C@@H]1CCCCO[C@@H](CN(C)C(=O)Cc2ccccc2)[C@@H](C)CN([C@H](C)CO)C(=O)c2cc(NS(=O)(=O)c3cn(C)cn3)ccc2O1	-8	-2[16.7 µM]
COCC#Cc1cnc2c(c1)C(=O)N([C@H](C)CO)C[C@H](C)[C@@H](CN(C)Cc1ccc3c(c1)OCO3)O2	-3	-1[16.7 µM]
COc1ccc(S(=O)(=O)N(C)C[C@H]2OCCCC[C@@H](C)Oc3ccc(NC(=O)c4ccncc4)cc3C(=O)N([C@@H](C)CO)C[C@H]2C)cc1	20	-3[16.7 µM]
O=C(C[C@@H]1C[C@H]2c3cc(NC(=O)c4cccnc4)ccc3O[C@H]2[C@H](CO)O1)NCc1ccccn1	-18	0[16.7 µM]
C[C@H](CO)N1C[C@H](C)[C@@H](CN(C)Cc2ccncc2)OCCCC[C@H](C)Oc2ccc(NS(=O)(=O)c3ccc(Cl)cc3)cc2C1=O	-12	-13[16.7 µM]
O=C(NCC[C@@H]1CC[C@@H](NC(=O)c2cnccn2)[C@@H](CO)O1)Nc1ccc(Cl)cc1	12	50[16.7 µM]
O=C(C[C@H]1CC[C@@H]2[C@H](COC[C@H](O)CN2S(=O)(=O)c2ccccc2)O1)N1CCOCC1	-1	-1[16.7 µM]
C[C@@H]1CCCCO[C@@H](CN(C)C(=O)NC2CCCCC2)[C@H](C)CN([C@H](C)CO)C(=O)c2cc(NC(=O)Nc3cccc4ccccc34)ccc2O1	7	9[16.7 µM]
C[C@@H]1CN([C@@H](C)CO)C(=O)Cc2cc(NC(=O)Nc3ccc(C(F)(F)F)cc3)ccc2O[C@@H]1CN(C)S(=O)(=O)c1cccs1	-11	26[16.7 µM]
CNC[C@@H]1Oc2ccc(N(C)C)cc2C(=O)N([C@H](C)CO)C[C@@H]1C	-6	24[16.7 µM]
C[C@@H]1CCCCO[C@@H](CN(C)C(=O)Nc2cccc3ccccc23)[C@@H](C)CN([C@H](C)CO)C(=O)c2cc(NC(=O)Nc3ccc(F)cc3)ccc2O1	-9	2[16.7 µM]
CCCN(C)C[C@H]1OCCCC[C@H](C)Oc2ccc(NS(=O)(=O)c3c(C)noc3C)cc2C(=O)N([C@@H](C)CO)C[C@H]1C	6	-38[16.7 µM]
COc1ccc(NC(=O)N(C)C[C@H]2OCCCC[C@@H](C)Oc3ccc(NC(=O)CCCN(C)C)cc3C(=O)N([C@H](C)CO)C[C@H]2C)cc1	22	2[16.7 µM]
COc1cccc(-c2cn(CC[C@@H]3CC[C@@H](NC(C)=O)[C@H](CO)O3)nn2)c1	25	-13[16.7 µM]
COc1cccc(NC(=O)N[C@H]2C=C[C@@H](CC(=O)N3CCN(C)CC3)O[C@@H]2CO)c1	-10	-54[16.7 µM]
O=C(N[C@H]1CC[C@@H](CCNS(=O)(=O)c2ccc(Cl)cc2)O[C@@H]1CO)c1cnccn1	-4	10[16.7 µM]
C[C@H]1CN([C@@H](C)CO)C(=O)c2cc(NC(=O)c3ccncc3)ccc2O[C@@H]1CN(C)C(=O)Nc1ccc(C(F)(F)F)cc1	4	-3[16.7 µM]

6 compounds picked at random from the list so far:
structure	Yeast UUG start	HIV Env fusion
COc1cccc(NC(=O)N[C@H]2C=C[C@@H](CC(=O)N3CCN(C)CC3)O[C@@H]2CO)c1	-10	-54[16.7 µM]
CC(C)NC(=O)N(C)C[C@H]1Oc2c(NC(=O)c3ccc(-c4nccs4)cc3)cccc2C(=O)N([C@H](C)CO)C[C@@H]1C	1	4[16.7 µM]
Cc1noc(C)c1NC(=O)Nc1cccc2c1O[C@@H](CN(C)S(C)(=O)=O)[C@H](C)CN([C@@H](C)CO)C2=O	-5	0[16.7 µM]
C[C@@H]1CCCCO[C@@H](CN(C)C(=O)NC2CCCCC2)[C@H](C)CN([C@H](C)CO)C(=O)c2cc(NC(=O)Nc3cccc4ccccc34)ccc2O1	7	9[16.7 µM]
CCCN(C)C[C@H]1OCCCC[C@H](C)Oc2ccc(NS(=O)(=O)c3c(C)noc3C)cc2C(=O)N([C@@H](C)CO)C[C@H]1C	6	-38[16.7 µM]
COc1cccc(-c2cn(CC[C@@H]3CC[C@@H](NC(C)=O)[C@H](CO)O3)nn2)c1	25	-13[16.7 µM]

The list goes on.
structure	Yeast UUG start	HIV Env fusion
COc1ccc(S(=O)(=O)Nc2ccc3c(c2)C(=O)N([C@@H](C)CO)C[C@@H](C)[C@@H](CN(C)C(=O)Nc2ccc(C(F)(F)F)cc2)OCCCC[C@@H](C)O3)cc1	-22	6[16.7 µM]
C[C@@H]1CN([C@@H](C)CO)S(=O)(=O)c2ccc(C#CC3CC3)cc2O[C@@H]1CN(C)C(=O)CN(C)C	2	3[16.7 µM]
N#C[C@H]1[C@H](c2ccc(-c3ccccc3F)cc2)[C@H](CO)N1C(=O)C1CCC1	2	6[16.7 µM]
O=C(N[C@@H]1CC[C@@H](CCn2cc(-c3ccccn3)nn2)O[C@@H]1CO)c1ccccc1	-11	12[16.7 µM]
C[C@@H]1CN([C@H](C)CO)C(=O)Cc2cc(NC(=O)Cn3cnnn3)ccc2O[C@@H]1CN(C)Cc1ccc2c(c1)OCO2	-11	12[16.7 µM]
C[C@@H]1CN([C@@H](C)CO)C(=O)c2cc(C#Cc3ccccc3)cnc2O[C@H]1CN(C)C(=O)CCN1CCCCC1	1	3[16.7 µM]
COc1ccc(-c2cnc3c(c2)C(=O)N([C@@H](C)CO)C[C@@H](C)[C@H](CN(C)C(=O)C2CC2)O3)cc1	45	-3[16.7 µM]
C[C@H]1CCCCO[C@@H](CN(C)Cc2ccncc2)[C@@H](C)CN([C@@H](C)CO)C(=O)c2cc(NC(=O)c3ccccc3)ccc2O1	-8	13[16.7 µM]
CC(C)NC(=O)Nc1ccc2c(c1)C(=O)N([C@@H](C)CO)C[C@H](C)[C@H](CN(C)Cc1ccc(C(=O)O)cc1)OCCCC[C@@H](C)O2	19	7[16.7 µM]
C[C@@H]1CN([C@@H](C)CO)C(=O)c2cc(N(C)C)ccc2O[C@@H](C)CCCCO[C@@H]1CN(C)C(=O)Cc1ccccc1	6	-3[16.7 µM]
C[C@@H]1CN([C@H](C)CO)C(=O)c2cc(NC(=O)Nc3ccccc3)ccc2O[C@@H](C)CCCCO[C@@H]1CN(C)Cc1ccc2c(c1)OCO2	22	-24[16.7 µM]
C[C@@H]1CN([C@@H](C)CO)S(=O)(=O)c2ccc(C#C[C@@H](C)O)cc2O[C@H]1CN(C)C(=O)CN(C)C	0	-9[16.7 µM]
CN1C(=O)c2cc(NC(=O)C3CC3)ccc2OC[C@H]2O[C@@H](CC(=O)NCc3cccc(F)c3)CC[C@@H]21	10	29[16.7 µM]
CC(C)CC#Cc1cnc2c(c1)C(=O)N([C@@H](C)CO)C[C@@H](C)[C@@H](CN(C)Cc1ccccc1)O2	13	11[16.7 µM]
C[C@@H]1CCCCO[C@H](CN(C)Cc2ccc3c(c2)OCO3)[C@H](C)CN([C@H](C)CO)C(=O)c2cc(NC(=O)Nc3cccc4ccccc34)ccc2O1	33	3[16.7 µM]
Cc1noc(C)c1S(=O)(=O)N(C)C[C@@H]1Oc2ccc(NC(=O)Nc3cccc4ccccc34)cc2CC(=O)N([C@@H](C)CO)C[C@@H]1C	-27	59*[16.7 µM]
COc1cccc(C#Cc2ccc([C@@H]3[C@@H](C#N)N(C(=O)C4CC4)[C@H]3CO)cc2)c1	-4	-11[16.7 µM]
COc1ccc(NC(=O)N(C)C[C@H]2Oc3ncc(C#C[C@H](C)O)cc3C(=O)N([C@H](C)CO)C[C@@H]2C)cc1	7	-30[16.7 µM]
C[C@H]1CN([C@@H](C)CO)C(=O)c2cc(NC(=O)CCC(F)(F)F)ccc2O[C@@H]1CN(C)Cc1ccc(Oc2ccccc2)cc1	5	5[16.7 µM]
C[C@@H]1CCCCO[C@H](CN(C)S(C)(=O)=O)[C@@H](C)CN([C@@H](C)CO)C(=O)c2cc(NC(=O)CCCN(C)C)ccc2O1	6	7[16.7 µM]
CNC[C@@H]1OCCCC[C@H](C)Oc2ccc(NC(=O)c3ccncc3)cc2C(=O)N([C@H](C)CO)C[C@H]1C	3	-11[16.7 µM]
CC(=O)N(C)C[C@H]1Oc2cc(C#Cc3cccnc3)ccc2S(=O)(=O)N([C@H](C)CO)C[C@@H]1C	13	12[16.7 µM]
C[C@@H]1CN([C@@H](C)CO)C(=O)c2cc(C#Cc3ccncc3)cnc2O[C@@H]1CN(C)C(=O)c1ccccc1F	-3	-7[16.7 µM]
Cc1noc(C)c1NC(=O)N(C)C[C@@H]1Oc2ccc(NC(=O)C3CC3)cc2CC(=O)N([C@H](C)CO)C[C@H]1C	-3	33[16.7 µM]
CN(C)CCCNC(=O)C[C@@H]1C=C[C@@H](NS(=O)(=O)c2ccc(F)cc2)[C@H](CO)O1	-7	12[16.7 µM]
C[C@@H]1CCCCO[C@@H](CN(C)S(=O)(=O)c2ccccc2)[C@@H](C)CN([C@H](C)CO)C(=O)c2cc(NS(=O)(=O)c3ccc(Cl)cc3)ccc2O1	1	-6[16.7 µM]
COc1ccc(S(=O)(=O)N(C)C[C@H]2OCCCC[C@@H](C)Oc3ccc(NS(=O)(=O)c4c(C)noc4C)cc3C(=O)N([C@@H](C)CO)C[C@@H]2C)cc1	16	-17[16.7 µM]
CC(C)NC(=O)N(C)C[C@@H]1Oc2ccc(NC(=O)Nc3cccc4ccccc34)cc2C(=O)N([C@H](C)CO)C[C@H]1C	-5	-6[16.7 µM]
CCNC(=O)C[C@H]1CC[C@H]2[C@H](COc3ccc(NC(=O)NC(C)C)cc3C(=O)N2C)O1	-2	3[16.7 µM]
C[C@@H]1CN([C@H](C)CO)C(=O)c2cc(C#CCN(C)C)cnc2O[C@H]1CN(C)C(=O)CCN1CCCCC1	0	-11[16.7 µM]

structure	Yeast UUG start	HIV Env fusion
Cc1noc(C)c1NC(=O)N(C)C[C@@H]1Oc2ccc(NC(=O)Cn3cnnn3)cc2CC(=O)N([C@@H](C)CO)C[C@H]1C	-18	-2[16.7 µM]
COc1ccccc1C#Cc1ccc2c(c1)O[C@H](CN(C)Cc1ccncc1)[C@H](C)CN([C@H](C)CO)S2(=O)=O	3	17[16.7 µM]
CNC[C@@H]1Oc2ccc(NC(=O)NC3CCCCC3)cc2CC(=O)N([C@@H](C)CO)C[C@H]1C	-14	6[16.7 µM]
C[C@H]1CN([C@@H](C)CO)C(=O)c2cc(C#CCc3ccccc3)cnc2O[C@@H]1CN(C)Cc1cccnc1	5	-4[16.7 µM]
Cc1noc(C)c1S(=O)(=O)Nc1ccc2c(c1)C(=O)N([C@@H](C)CO)C[C@@H](C)[C@@H](CN(C)Cc1ccc(Cl)c(Cl)c1)OCCCC[C@@H](C)O2	24	-3[16.7 µM]
C[C@H](CO)N1C[C@H](C)[C@H](CN(C)Cc2ccc(C(F)(F)F)cc2)Oc2ccc(NS(=O)(=O)c3cn(C)cn3)cc2C1=O	-2	-4[16.7 µM]
Cc1ccc(NC(=O)Nc2ccc3c(c2)C(=O)N(C)[C@H]2CC[C@H](CC(=O)O)O[C@H]2CO3)cc1	-12	-2[16.7 µM]
C[C@@H]1CN([C@@H](C)CO)S(=O)(=O)c2ccc(-c3ccccc3F)cc2O[C@H]1CN(C)Cc1ccncc1	-6	14[16.7 µM]
